Source: PubChem (several laboratories)
Bead autofluor – flagged as autofluorescent in microsphere protease counterscreen; compound autofluorescence counterscreen, microsphere flow cytometry; stronger effect = higher value; fluorescence intensity (concentration not given with the values); 3.1% of 360,000 active; AID 624483;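 active means at least 3 SD above the mean of all compounds, about 16000 in these data; inconclusive means too few beads counted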;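 further: 100 nL of 1 mM stock went into each well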
Mtb hypoxia inh – inhibitors of hypoxia-regulated fluorescent reporter in Mycobacterium tuberculosis | M. tuberculosis hypoxia-regulated fluorescent reporter, fluorescence | fluorescence inhibition, % (concentration not given with the values) | 0.1% of 300,000 active | AID 1159583;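 active means 35 to 45% if threefold the growth effect, above 45% if 1.5-fold the growth effect; inactive means the rest, general growth blockers included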;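 further: wells of about 50 µL received 100 nL stock; 0% = vehicle wells and 100% = reference inhibitor wells; whole bacteria with a GFP reporter of the hypoxia response; strong numbers were not always called active; many hits fall short of the cut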
PrP 5UTR inh – inhibition of PrP 5' UTR reporter expression | cell-based PrP 5' UTR mRNA reporter, plate reader | inhibition, % (test concentration not listed) | 0.35% of 340,000 active | AID 488862;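 active means every replicate at 50% or more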;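 further: 0 = median of the neutral control wells; tested in H4 reporter cells; numbers are from one replicate; inactives centre near -14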
BJeLR viability – kills HRASV12-expressing BJeLR cells | inhibition, % (no concentration beside the values) | BJeLR (HRASV12) viability, CellTiter-Glo ATP luminescence, 48 h; reference of the scale not given here | 0.17% of 300,000 active;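 active means replicate mean above 50%; inconclusive means above 50% but judged a plate artefact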;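 further: 50 nL library stock added to about 25 µL; numbers are from one replicate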
ugtP null kill – kills S. aureus RN4220 lacking UgtP; S. aureus RN4220 ugtP deletion, OD600 growth, 16 h; some inactives read as strong as hits; growth inhibition, % (test concentration not listed); 0.54% of 330,000 active;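 active means z-score under -3 and OD600 up to 0.15 on both plates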;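 further: plate controls were untreated wells for no effect and antibiotic for full effect; wells of about 80 µL received 100 nL stock; the first replicate is given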
Sa RN4220 lethal – kills Staphylococcus aureus RN4220 | AID 1259311 | inhibition, % (concentration not given with the values) | 0.33% of 330,000 active | S. aureus RN4220 growth, OD600, 16 h;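 active means z-score of -3 or lower and OD600 up to 0.18 on both plates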;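 further: plate controls were untreated cells for no effect and reference antibiotic for full effect; stock transfer was 100 nL into about 80 µL; one replicate is shown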
Mtb hypoxia inh growth – recorded beside Mtb hypoxia inh, whose call it bears; growth inhibition, %; measured here: M. tuberculosis growth (absorbance);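 0% = vehicle and 100% = reference antibiotic; read after six days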
An asterisk follows results filed as active; ? = inconclusive; / = not tested or not shown. Not a hit list; overall some 4% were active at least once.

A first look, two compounds:
SMILES	Bead autofluor	Mtb hypoxia inh	Mtb hypoxia inh growth	PrP 5UTR inh	BJeLR viability	ugtP null kill	Sa RN4220 lethal
C(=Nn1cnnc1)c1ccc(OCc2ccccc2)cc1	/	8.7	9.9	/	/	5.7	8.1
COc1ccccc1NC(=S)N1CCN(c2ccc(F)cc2)CC1	3494	5.1	-1.0	-24.6	-5.2	6.5	3.4

Main list (from the top)
SMILES	Bead autofluor	Mtb hypoxia inh	Mtb hypoxia inh growth	PrP 5UTR inh	BJeLR viability	ugtP null kill	Sa RN4220 lethal
C(=Nn1cnnc1)c1ccc(OCc2ccccc2)cc1	/	8.7	9.9	/	/	5.7	8.1
COc1ccccc1NC(=S)N1CCN(c2ccc(F)cc2)CC1	3494	5.1	-1.0	-24.6	-5.2	6.5	3.4
CCOC(=O)N1CCN(C(=O)COC(=O)c2cc(C)ccc2C)CC1	3058	12.7	11.7	-11.6	/	8.5	4.9
CC(=O)NC1C(=O)Nc2c(C)cc(C)cc21 (centres undefined)	2568	/	/	-13.2	-0.2	-2.3	9.2
CCC(=O)Nc1ccccc1-c1nnn(CC(=O)N2c3ccccc3CC2C)n1 (centres undefined)	7817	3.3	0.8	-8.3	-1.7	-4.9	1.5
Cc1nc2ccc(S(=O)(=O)NCC(=O)N3CCOCC3)cc2s1	2490	3.4	1.4	-4.8	2.7	-6.0	3.0
CCOC(=O)COc1ccc(S(=O)(=O)N2CCN(c3ccccc3F)CC2)cc1	9599	8.7	1.3	-19.7	1.5	13.9	6.4
COc1ccccc1OCC(=O)Nc1ccccc1C(=O)N1CCCCC1	4486	-0.2	-0.5	2.2	-5.0	1.6	3.0
CCOc1ccc(C(=O)NCCCN(CC)CC)cc1	9759	4.6	2.2	-25.1	-8.8	9.5	4.3
O=C(NC1CC1)c1nc(Cn2cc([N+](=O)[O-])cn2)no1	4973	10.1	2.4	-3.1	1.1	-2.5	3.2
N#Cc1ccc(OCC(=O)NCC(c2cccs2)N2CCOCC2)cc1 (centres undefined)	4501	4.4	-2.9	-15.7	-2.0	10.1	3.0
CC1=CC(=O)CC2C1(C)CCC(C)C2(C)CCC(C)CC(=O)O (centres undefined)	4194	/	/	-0.1	-12.5	-24.2	12.3
COC(=O)[C@H](C)NC(=O)NCc1ccc(S(N)(=O)=O)cc1	4699	16.9	-2.2	-6.6	1.2	6.5	4.1
O=C(Nc1ccc(Cl)cc1[N+](=O)[O-])c1ccc2c(c1)OCCO2	?	0.1	1.0	-73.0	8.8	-0.8	-0.1
O=C(CCS(=O)(=O)c1ccccc1)NC1CCCCC1	5466	4.3	6.8	-24.3	-7.4	2.2	3.0
O=C(Nc1ccc(C(=O)N2CCOCC2)cc1)c1cccc(Br)c1	5786	0.7	11.3	-14.8	-1.1	3.2	1.8
COc1ccccc1NS(=O)(=O)c1cccc(C(=O)N/N=C/c2c(C)nn(-c3ccccc3)c2N2CCCC2)c1	1979	/	/	5.3	1.0	/	/
COc1ccc(C(=O)NN=C(C)CC(=O)Nc2ccc3c(c2)OCO3)cc1	/	15.4	1.0	/	/	9.6	3.4
CN1/C(=C\C(=S)NC(=O)c2cccc(Br)c2)C(C)(C)c2ccccc21	5118	-4.5	-4.8	-18.3	2.1	-19.9	5.0
COc1ccc(N2CC(C(=O)Nc3ccncc3)CC2=O)cc1 (centres undefined)	3419	4.7	2.1	-16.0	-11.8	4.6	3.3
COc1ccc(CC2CN3C(=NCC3Cc3ccccc3)N2CCNC(=O)c2ccc(C)c(Br)c2)cc1 (centres undefined)	/	16.2	21.1	/	/	10.5	13.8
COc1ccc(-c2nc3nc(SC)nn3cc2C)cc1F	3440	1.6	1.5	6.0	-0.3	3.8	2.8
O=C(NCc1ccc2c(c1)OCO2)C1CC(c2cccc(Br)c2)=NO1 (centres undefined)	2916	/	/	-1.1	-1.0	-10.6	0.6
COc1ccc(-c2cc3onc(-c4c(Cl)cccc4Cl)c3c(=O)n2C)cc1	3073	19.7	5.4	-25.8	/	13.9	2.7

2 entries from above, with each value named:
> O=C(CCS(=O)(=O)c1ccccc1)NC1CCCCC1
  Bead autofluor = 5466; Mtb hypoxia inh = 4.3; Mtb hypoxia inh growth = 6.8; PrP 5UTR inh = -24.3; BJeLR viability = -7.4; ugtP null kill = 2.2; Sa RN4220 lethal = 3.0

> O=C(Nc1ccc(Cl)cc1[N+](=O)[O-])c1ccc2c(c1)OCCO2
  Bead autofluor = ?; Mtb hypoxia inh = 0.1; Mtb hypoxia inh growth = 1.0; PrP 5UTR inh = -73.0; BJeLR viability = 8.8; ugtP null kill = -0.8; Sa RN4220 lethal = -0.1

Later entries.
SMILES	Bead autofluor	Mtb hypoxia inh	Mtb hypoxia inh growth	PrP 5UTR inh	BJeLR viability	ugtP null kill	Sa RN4220 lethal
CSc1nnc(-c2sc3cc(C(F)(F)F)cnc3c2-c2cccnc2)n1C	2107	/	/	-7.7	-7.0	8.6	3.1
CCOc1ccc(N(CC(=O)NCc2ccc(F)cc2)C(=O)c2ccco2)cc1	4175	1.6	-14.6	-2.0	-14.9	5.4	6.1
CCCCN(CC)C(=O)Cn1nc(Cc2ccncc2)c2ccccc2c1=O	3499	10.9	1.8	4.9	-2.2	3.7	6.1
Cc1ccc(S(=O)(=O)n2ccc(-c3ccc(OCc4c(F)cccc4Cl)cc3)n2)cc1	4622	13.0	10.6	-18.6	-4.5	-4.7	0.4
NC(=O)c1ccc(NC(=O)CN2CCN(S(=O)(=O)c3ccc4c(c3)OCCO4)CC2)cc1	/	-4.1	2.5	-24.2	/	8.9	6.5
CCC1Oc2ccccc2N(CC(=O)NC2CCCCC2C)C1=O (centres undefined)	5570	-6.8	1.5	-11.4	1.8	-2.1	-1.3
Cc1nc2cc(Nc3nnc(-c4ccccc4)c4ccccc34)ccc2n1C	9363	4.6	7.9	-36.5	0.4	4.9	-1.5
Cc1ccc(-c2noc(/C=C/c3ccccc3)n2)cc1	6548	3.7	1.3	-76.8	5.9	14.3	-5.3
Cn1c(=O)c2c(nc(Oc3ccc4c(c3)OCO4)n2Cc2ccc(Br)cc2)n(C)c1=O	/	10.6	4.8	/	4.6	6.7	0.6
O=C(NCCOc1ccccc1F)c1cc([N+](=O)[O-])ccc1N1CCOCC1	/	-2.0	-4.4	-9.2	28.1	-1.6	5.4
CCOC(=O)C1CCN(C(=O)CN2C(=O)c3cccnc3Oc3ccccc32)CC1	4795	0.3	-7.4	-20.5	-5.8	10.7	1.2
CN1CCCN(C(=O)CNC(=O)c2ccc(Cl)cc2Cl)CC1	3807	7.0	10.3	-35.4	/	-1.2	-0.3
Cc1c(Cl)cccc1-c1ccc(/C=N/n2cnnc2)o1	2432	/	/	-2.4	1.6	/	/
CCc1ccc2oc(-c3ccc(OC)cc3)cc(=Nc3c(C)n(C)n(-c4ccccc4)c3=O)c2c1	4584	24.6	42.2	-88.6	3.6	0.2	1.2
CC(=O)Nc1cc(C(=O)N2CCN(C)CC2)ccc1Sc1ccc(C)cc1	10392	-0.5	2.3	-20.1	-0.2	-0.3	1.8
Cc1ccc(NC(=O)c2ccc3c(=O)n4c(nc3c2)CCC4)cc1S(=O)(=O)N(C)C	6770	7.7	1.5	-21.5	/	15.9	2.5
COc1ccc(CC(=O)NCC2CCCN(Cc3cccc(C(F)(F)F)c3)C2)cc1 (centres undefined)	4741	2.8	16.6	-3.7	1.4	0.8	-6.6
CCOC(=O)C(C(=O)Nc1ccccc1Br)=C1NC(C)(C)Cc2ccccc21	/	5.2	4.7	/	/	19.5	-9.3
CC1CCN(C2(O)C(=O)Nc3ccc(Br)cc32)CC1 (centres undefined)	3330	7.9	4.2	-6.0	3.2	11.1	6.2
Cc1ccc(S(=O)(=O)N2c3ccccc3-c3c(ssc3=S)C2(C)C)cc1	8448	7.9	2.9	-4.3	-3.1	5.1	3.0
Cc1cc(NC(=O)c2ccccc2)ncc1NC(=O)c1ccco1	3017	10.5	10.1	-80.8	30.9	-1.7	-2.8
CCOc1cc(N2CCOCC2)c(OCC)cc1NC(=O)c1[nH]c(C)c(C(C)=O)c1C	5334	-3.3	0.2	-15.1	/	3.0	7.0
Cc1cc(=O)[nH]c(NN=Cc2sccc2C)n1	/	13.5	-3.3	/	/	0.9	2.2
CCCCn1c(/N=C/c2ccc3c(c2)OCO3)nc2ccccc21	9893	/	/	-4.1	19.6	/	/
C=CCSc1nc2c(c(C3CC=CCC3)c1C#N)CCC2 (centres undefined)	3166	2.9	2.5	5.7	-9.0	97.2*	-3.5
c1ccc(-c2nnc3sc(CN4CCc5ccccc54)cn23)cc1	10500	11.7	3.6	0.5	0.0	9.9	8.7
O=C(COc1cccc(C(F)(F)F)c1)NCCCN1CCCC1=O	16354*	8.0	7.7	-0.8	4.8	-0.3	-1.3
Cc1cc(Br)cc(C)c1OCC(=O)NNC(=O)c1cccs1	4601	0.5	-1.9	3.1	13.6	10.8	-4.4
COc1ccc(C(=O)Nc2ccccc2)cc1NC(=O)c1cccs1	4450	8.8	1.5	-9.7	1.4	6.8	2.5
Cc1[nH]nc2c1C(=NO)CC(c1ccccc1)C2 (centres undefined)	/	12.1	9.3	/	/	-3.6	4.2
CCN(CC(=O)Nc1cc(Cl)ccc1C)C(=O)C1CC(=O)N(Cc2ccccc2)C1 (centres undefined)	6368	8.2	2.0	-16.7	4.0	5.8	0.4
O=C(NCC1COc2ccccc2O1)c1ccc(F)c(S(=O)(=O)N2CCOCC2)c1 (centres undefined)	5859	-7.2	4.4	9.9	/	1.5	-0.8
O=C(c1ccc(-c2ccccc2)c(F)c1)C1CCCN(CCCn2cccn2)C1 (centres undefined)	4373	-1.0	10.3	-15.6	13.9	14.0	1.2
CCCCCN(C(=O)CCC(=O)OCCOc1ccc(OC)cc1)c1c(N)n(CCCC)c(=O)[nH]c1=O	?	-9.3	-2.5	-4.1	-4.3	7.9	1.6
Cc1cc(N=Nc2ccc(Cl)cc2)cc(CN2CCCC2)c1O	4076	0.8	-3.6	-26.0	-6.4	37.1	1.3
CCOc1ccc2[nH]c(=O)c(C(c3nnnn3CC3CCCO3)N3CCc4ccccc4C3)cc2c1 (centres undefined)	5653	-1.1	3.9	-32.6	-3.6	4.4	3.2
CCOC(=O)c1ccc(NC(=O)C23CCC(C)(C(=O)O2)C3(C)C)cc1 (centres undefined)	16270*	-10.5	9.7	-51.4	1.4	-7.8	-4.8
COc1ccc(C(=O)c2c3ccc(C(F)(F)F)cc3[n+]([O-])n2CCCC(N)=O)cc1	2766	-0.3	4.0	-16.5	-2.4	1.7	-0.3
C#CCOCCOCCOCCNc1nc(N2CCN(C(=O)C(CCCCN)n3cc(CN)nn3)CC2)nc(N2CCN(C(=O)C(CCCN=C(N)N)n3cc(C(N)C(C)CC)nn3)CC2)n1 (centres undefined)	/	25.3	13.3	/	/	2.7	4.8
CCOc1ccc(-c2nc(-c3ccccc3C)no2)cc1	/	/	/	/	10.6	14.6	-8.3
Cc1nnc(NC(=O)c2cc3ccccc3o2)s1	6207	-1.4	-7.8	-26.3	0.8	-3.6	-0.7
COc1cc(C(=S)NCc2ccccc2)cc(Br)c1O	3832	-1.6	0.8	-48.9	2.8	-4.8	1.0
c1ccc2c(c1)ncc1cccn12	8837	8.1	-7.7	-16.1	-3.9	7.6	3.3
Cc1ccc(NC(=O)c2ccc(COc3ccccc3)o2)nc1	5244	-2.7	4.4	-25.9	13.0	2.4	6.9
CSCCC(NC(=O)COc1ccccc1)C(=O)N1CCCC(C(F)(F)F)C1 (centres undefined)	?	4.5	10.8	-25.7	-3.3	7.7	1.7
Cc1ccc(OCCC(=O)Nc2ccc(F)c(Cl)c2)cc1	2498	2.9	5.3	-36.2	-20.9	-17.4	1.9
O=C(Cn1cnnn1)NCc1ccccc1	5767	0.4	0.6	-20.5	-5.8	-3.9	4.7
O=C(NC1CCN(S(=O)(=O)c2ccccc2F)CC1)c1cccnc1	3996	6.1	-0.3	-28.9	0.4	9.0	3.0
CCOc1ccc2nc(NC(=O)C3CCCO3)sc2c1 (centres undefined)	4108	-6.1	-10.5	-37.0	-3.5	2.4	-3.2

Single entries from the results shown.
In Mtb hypoxia inh, C#CCOCCOCCOCCNc1nc(N2CCN(C(=O)C(CCCCN)n3cc(CN)nn3)CC2)nc(N2CCN(C(=O)C(CCCN=C(N)N)n3cc(C(N)C(C)CC)nn3)CC2)n1 (centres undefined) has 25.3
In BJeLR viability, CCOc1ccc(-c2nc(-c3ccccc3C)no2)cc1 has 10.6
